Bioassay records from PubChem BioAssay.
CSC inhib: cancer stem cell inhibition; AID 2717; inhibition, % at 7.5 µM; 300,000 compounds, 1.1% hits; cancer stem cell-like cells viability, luminescence;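 active = mean at 75% or more and at least half the replicates too; tested in HMLE shEcad cells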;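 also: 0% = median of negative and 100% = median of positive control wells; the first replicate is given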
eIF4H inh: inhibitors of RNA binding by human eIF4H | Q15056 | eIF4H fluorescence polarization binding assay | inhibition, % at 35 µM | 290,000 compounds, 0.94% hits;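 active = 50% or more with normal probe brightness, or confirmed in later tests; about a fifth of its hits are not listed in these tables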;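 also: calls also rest on retests at 20 µM and on dose response follow-up; 0% = protein and probe with vehicle and 100% = probe without protein; strong numbers were not always called active; many hits fall short of the cut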
Env fusion inh: HIV envelope-mediated fusion inhibition. HeLa-JRFL Env/CEM21 cell fusion, luciferase. inhibition, % at 12.3 µM. 360,000 compounds, 1.1% hits;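 active = mean replicate inhibition score of at least 50 and every replicate individually at or above 50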;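 also: 0% = plate neutral controls and 100% = maraviroc near 300 nM; one replicate is shown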
Yeast UUG start: modulators of start codon recognition fidelity in yeast; S. cerevisiae UUG-firefly luciferase reporter, luminescence/redox ratio; 350,000 compounds, 0.13% hits; activity score, % at 18.7 µM;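 active = replicate mean at a twofold rise or more, about +100% in these data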;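 also: firefly luciferase made from a UUG start codon reports start codon fidelity; reporter light over untreated wells divided by growth signal over untreated wells; some hits fall short of that in this replicate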
MT1-MMP act inh: MT1-MMP (human) activation inhibition | HT1080 RFP-PRO-GFP cells, GFP/RFP ratio fluorescence, overnight; percent of plate control window, DMSO zero | GFP/RFP ratio change, % at 20 µM | AID 651647 | 360,000 compounds, 0.061% hits;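 active = GFP/RFP ratio change of at least 30% with cell ATP level not reduced by more than half and red fluorescence within 50% of control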; also: strong numbers were not always called active
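Test system: HT1080 RFP-PRO-GFP cells; Benchmarks: DMSO and RFP-L50D-GFP cell wells; Timing: cells overnight before dosing, compound overnight, 37 °C, 5% CO2; Compound: one 20 µM compound dose with 1% DMSO; Read-out: GFP/RFP fluorescence ratio.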
Rce1 inh: yeast Ras-converting enzyme inhibition | Q03530 | yeast membranes, quenched prenylated peptide cleavage fluorescence | calls only | 290,000 compounds, 0.27% hits;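 active = fall in fluorescence gain of 50% or more versus controls, with final raw signal at or below 3038400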;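 also: plate controls were neutral control wells for no effect and wells lacking membranes for full effect; tested at 10 µM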
Target sequence (Q03530 whole entry, looked up): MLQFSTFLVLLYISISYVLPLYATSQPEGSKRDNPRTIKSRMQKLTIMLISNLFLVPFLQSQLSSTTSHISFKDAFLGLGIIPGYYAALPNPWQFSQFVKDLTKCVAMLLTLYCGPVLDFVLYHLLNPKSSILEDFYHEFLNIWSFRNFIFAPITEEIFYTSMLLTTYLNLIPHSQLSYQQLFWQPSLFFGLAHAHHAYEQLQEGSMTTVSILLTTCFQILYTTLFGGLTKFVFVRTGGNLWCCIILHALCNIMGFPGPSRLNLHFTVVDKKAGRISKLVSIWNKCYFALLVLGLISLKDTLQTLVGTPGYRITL
PABP FP inh: PABP-poly(A) binding inhibition | P11940 | PABP-poly(A) RNA binding, fluorescence polarization | inhibition, % at 35 µM | 290,000 compounds, 1% hits;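 active = 50% or more with normal probe brightness, or confirmed in later tests; about a fifth of its hits are not listed in these tables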;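 also: calls also rest on retests at 20 µM and on dose response follow-up; controls were probe without protein and protein plus probe with vehicle; some compounds called inactive have numbers as strong as hits; many hits fall short of the cut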
eIF4H inh retest: also measured in eIF4H inh; calls as there; inhibition, %; compound at 20 µM; confirmation average;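 mean of two retest wells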
PABP FP inh retest: further read-out of PABP FP inh, marked with its call; inhibition, %; compound at 20 µM; confirmation repeats;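 mean of two retest wells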
MT1-MMP act inh RFP: second read-out of MT1-MMP act inh, no call of its own (marks repeat the call); RFP signal change, %; measured here: RFP expression control read;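 0 = vehicle wells; hits needed this value within 50% of zero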
Starred values were filed as active, the others as inactive; i = inactive; / = not tested or not shown; & = joins results of further samples.

SMILES	CSC inhib	eIF4H inh	Env fusion inh	Yeast UUG start	MT1-MMP act inh	MT1-MMP act inh RFP	Rce1 inh	PABP FP inh	others
CC(C)(C)OC(=O)N1CCN(c2ccc(CNC(=O)c3ccc(Cl)cc3)cc2)CC1	26	2	27	-4	4	-18	i	-2
Cn1c(SCc2ccccc2Cl)nnc1-c1cnccn1	6	-6	-128	-11	1	1	i	-9
Cc1cccc(NC(=S)Nc2cccc(C)n2)n1	0	-2	-9	-22	-5	-3	i	-3
CN1C=CC=C/C1=C1\SC(=S)N(c2ccccc2)C1=O	2	-3	-73	-14	0	3	i	6
CCOCCn1c(CCCO)nc2ccccc21	1	5	5	-20	-8	-3	i	0
O=C(Nc1c2c(nn1-c1ccccc1)CS(=O)C2)c1ccc2c(c1)OCO2 (configuration not stated)	-18	0	-8	-9	-2	-1	i	4
COc1ccc(N(CC(=O)Nc2ccc(C)c(C)c2)S(=O)(=O)c2c(C)noc2C)cc1	-2	-6	7	-9	-2	-6	i	2
Cc1cc(NC(=O)CN2C(=O)NC(C)(c3ccccc3)C2=O)no1 (configuration not stated)	0	6	-2	14	5	3	i	6
Cc1ccc(-c2nc3ccc(C)cn3c2Cc2ccsc2)cc1	/	/	-62	-1	-5	-5	/	/
CC1CCC(NC(=O)C2c3ccccc3C(=O)N2Cc2ccc3c(c2)OCO3)CC1 (configuration not stated)	/	-4	5	619*	-3	-1	i	-12
CN(Cc1ccco1)S(=O)(=O)c1nnc(NC(=O)c2ccc(F)cc2)s1	26	-6	4	-22	-3	-1	i	1
O=[N+]([O-])c1ccccc1NCc1ccc(Cl)cc1	-5	-7	-134	/	/	/	i	-4
COC(=O)c1ccc(NC(=O)C2CC(=O)N(c3cc(C)ccc3C)C2)cc1 (configuration not stated)	-1	6	/	8	-7	0	i	8
CCn1c(C)cc(/C=C2\NC(=O)N(CC(=O)Nc3ccc(F)cc3)C2=O)c1C	-14	6	-2	/	-9	-2	i	33
COc1cc(NC(=O)Cn2nnc(-c3ccccc3N)n2)cc(OC)c1	16	1	/	-15	-1	-4	i	-4
O=C(COC(=O)c1ccncc1)Nc1cccc(Cl)c1	1	-1	/	-4	0	3	i	-6
COc1ccc(S(=O)(=O)N(NC2=NS(=O)(=O)c3ccccc32)C(=O)C(C)C)cc1	-8	-3	1	-24	-5	-2	i	0
O=C(CCCNS(=O)(=O)c1cccc2nsnc12)NCc1ccccc1	/	9	-24	5	3	1	i	1
COc1ccc(CNC(=O)CSc2nnc3c(n2)[nH]c2ccc(F)cc23)cc1	7	-16	-11	-15	-3	-3	i	-18
CC(C)c1ccc(CN(C(=O)c2ccco2)C2CCS(=O)(=O)C2)cc1 (configuration not stated)	-10	-5	1	-18	-1	-4	i	0
Oc1ccccc1-c1nc(NCC2CCCO2)c2ccccc2n1 (configuration not stated)	40	-7	51	/	1	-6	/	-3
COc1cc(N/C(=N/S(=O)(=O)c2ccccc2)c2ccccc2)ncn1	-4	4	-95	-14	0	-4	i	-2
Cc1c(C(=O)N(CCc2ccccc2)Cc2ccccc2)cccc1[N+](=O)[O-]	4	6	8	0	/	/	i	30
COc1ccc(OC)c(NS(=O)(=O)c2ccc(Cl)nc2)c1	5	3	-10	/	-1	5	i	-11
O=C(c1ccc2c(c1)OCO2)N1CCNc2ccccc2C1	15	0	/	-12	-1	1	/	2

Reprinted from above for reference:
SMILES	CSC inhib	eIF4H inh	Env fusion inh	Yeast UUG start	MT1-MMP act inh	MT1-MMP act inh RFP	Rce1 inh	PABP FP inh	others
COc1ccc(OC)c(NS(=O)(=O)c2ccc(Cl)nc2)c1	5	3	-10	/	-1	5	i	-11
O=C(c1ccc2c(c1)OCO2)N1CCNc2ccccc2C1	15	0	/	-12	-1	1	/	2

Additional results:
SMILES	CSC inhib	eIF4H inh	Env fusion inh	Yeast UUG start	MT1-MMP act inh	MT1-MMP act inh RFP	Rce1 inh	PABP FP inh	others
Cn1c(SCC#N)nnc1-c1cnccn1	-6	-9	-20	-6	-4	3	i	2
O=C(NCCc1ccccc1F)C1CC(=O)N(c2ccccc2)C1 (configuration not stated)	-21	-11	1	-12	2	8	i	-2
NS(=O)(=O)c1ccc(CCNC(=O)CNC(=O)c2ccc(F)cc2)cc1	3	0	22	-15	1	2	i	12
CN(CC(=O)Nc1ccccc1Cl)CC(=O)Nc1sc2c(c1C(N)=O)CCC2	/	/	-10	/	-3	-4	i	/
O=C(CSc1ncc(S(=O)(=O)c2ccccc2)c(=O)[nH]1)Nc1ccccc1Cl	9	-5	-64	/	2	8	i	-1
COc1ccc(NC(=O)CN(C)CCOc2ccc(Cl)cc2)cc1OC	-9	5	-2	-4	1	2	i	10
CCn1c(=O)c(C(=O)Nc2ccc(C)cc2C)c(O)c2ccccc21	6	-12	/	-2	-2	-8	i	-2
N#Cc1c(NC(=O)C2CCCO2)sc2c1CCCCC2 (configuration not stated)	-14	-3	-58	/	3	-2	i	3
Cc1cc(C)nc(N(C#N)S(=O)(=O)c2ccccc2)n1	-13	-9	/	-22	-2	7	i	26
CC(OC(=O)c1cnc(Cl)c(Cl)c1)C(=O)NCc1ccccc1 (configuration not stated)	-4	/	-11	-22	-3	2	/	/
CCCCC(=O)NC(c1ccccc1Cl)c1ccc2cccnc2c1O (configuration not stated)	99*	24	-130	-15	0	-10	i	5
CCc1cccc(C)c1NC(=O)COC(=O)c1c2c(nc3ccccc13)/C(=C\c1cccs1)CCC2	33	58	/	/	1	-5	i	8	eIF4H inh retest=2;PABP FP inh retest=2
Cc1cccc(/C=C(\C#N)C(=O)Nc2ccccn2)c1	-2	15	0	-15	-7	1	i	10
O=C(Nc1ccc(S(=O)(=O)Nc2cnc3ccccc3n2)cc1)c1ccc(Cl)c([N+](=O)[O-])c1	-2	0	18	-3	1	-6	i	8
COc1ccc(S(=O)(=O)N2CCN(C)CC2)cc1C(=O)N1CCCCC1	6	3	-16	-15	-3	-1	i	0
CCOc1ccc(/C=C2/SC(=S)N(C(C(=O)O)c3ccccc3)C2=O)cc1OCC (configuration not stated)	/	-3	12	/	1	2	/	11
COc1ccccc1C1c2c(C)nn(-c3ccccc3)c2NC(=O)C1NC(=O)c1ccccc1 (configuration not stated)	-12	-10	-4	-4	3	6	i	0
COc1ccccc1C(=O)NN1C(=O)C2C3C=CC(O3)C2C1=O (configuration not stated)	-12	3	/	-14	-1	8	i	9
COc1ccc(C(c2nnnn2C2CCCCC2)N2CCN(C)CC2)c(OC)c1 (configuration not stated)	-8	-2	-4	-16	1	6	i	-5
CC(C)NC(=O)CSc1c2c(nc3ccccc13)CCCC2	-8	-2	-3	/	6	6	i	-10
CC(Oc1cccc(Cl)c1)C(=O)Nc1ccccc1N1CCCC1 (configuration not stated)	26	/	-6	/	-3	-2	i	/
COc1ccc(C2CC(C(F)(F)F)n3nc(C(=O)NCc4c(C)nn(C)c4C)c(Cl)c3N2)cc1 (configuration not stated)	-3	-5	/	1	-1	-14	i	7
COC(=O)C1=C(C)N(c2ccc(C)c(C)c2)/C(=C/c2cccs2)C1=O	26	-8	/	-21	-8	-16	i	-7
CC1CC(C)CN(C(=O)Cn2c(-c3nonc3N)nc3ccccc32)C1 (configuration not stated)	-2	7	-79	-2	1	-2	i	-2
CCNC(=O)NC(=O)C(C)OC(=O)c1ccc(-n2nc(SC)sc2=S)cc1 (configuration not stated)	-7	3	10	/	-5	-1	/	23

(more compounds)
SMILES	CSC inhib	eIF4H inh	Env fusion inh	Yeast UUG start	MT1-MMP act inh	MT1-MMP act inh RFP	Rce1 inh	PABP FP inh	others
CCOC(=O)c1c(CN2CCCCC2)oc2ccc(OC)cc12	70&37	-3&-4	-12&16	-7&-8	8&1	-1&4	i	7&2
Nc1nc(N)nc(-c2ccc(Cl)c(Cl)c2)n1	0	/	28	-10	-13	-4	/	/
C[C@@H]1COC(=O)[C@@H](CC(=O)OC(C)(C)C)C/C=C\C[C@@H](CC(=O)N(CCO)Cc2ccccc2)C(=O)N1	-1	/	2	-2	2	6	/	/
O=C(O)c1ccccc1C(=O)N1CCc2c([nH]c3ccccc23)C1C(F)(F)F (configuration not stated)	5	-2	-3	2	-1	4	i	12
COc1ccc(-n2nc3c(c2NC(=O)c2ccc(Br)o2)CS(=O)(=O)C3)cc1	-11	1	-1	-16	0	1	i	4
Cc1cc(Br)ccc1OCCCCN1CCC(C)CC1	67	7	5	/	6	6	i	-4
COCCNc1nc(C)cc(-c2cc(C(=O)NCc3ccccc3)on2)n1	5	-8	6	-19	3	4	i	2
COCCCn1c(-c2ccc(OC)cc2)nc2nc3ccccc3nc21	/	-14	/	/	/	/	i	3
COc1cc(Br)c(CC(=O)NC2CC2)cc1OC	-10	-2	-5	-26	-2	-3	i	1
Cc1cccc(NS(=O)(=O)c2c(C(=O)N3CCOCC3)c(C)n(C)c2C)c1C	-6	1	-2	0	-1	3	i	6
COC(=O)c1sc(-c2ccc(Cl)cc2)cc1NC(=O)/C=C/C(=O)O	45	-13	-19	-22	-2	-9	i	0
COc1ccc(NC(=O)Cc2nnc(N)s2)cc1	-11	8	-1	/	2	0	i	6
COc1cc2c(cc1OC)CN(C(C)C(=O)N1CCc3ccccc31)CC2 (configuration not stated)	-1	-10	/	-2	-4	2	i	-3
CCn1ncc(C(=O)Nc2ccc(S(=O)(=O)N3CCCC3)cc2)c1C	10	-4	/	-18	1	1	i	-6
COc1ccc(N2CCN(C(c3nnnn3C3CCCC3)C(C)C)CC2)cc1 (configuration not stated)	-7	-4	34	/	-2	-2	i	-2
COc1ccc(NC(=O)c2nc3nccc(C)n3n2)cn1	10	7	/	-33	-2	2	i	48

Structural class: the entries above containing a Cl atom
SMILES	CSC inhib	eIF4H inh	Env fusion inh	Yeast UUG start	MT1-MMP act inh	MT1-MMP act inh RFP	Rce1 inh	PABP FP inh	others
CC(C)(C)OC(=O)N1CCN(c2ccc(CNC(=O)c3ccc(Cl)cc3)cc2)CC1	26	2	27	-4	4	-18	i	-2
Cn1c(SCc2ccccc2Cl)nnc1-c1cnccn1	6	-6	-128	-11	1	1	i	-9
O=[N+]([O-])c1ccccc1NCc1ccc(Cl)cc1	-5	-7	-134	/	/	/	i	-4
O=C(COC(=O)c1ccncc1)Nc1cccc(Cl)c1	1	-1	/	-4	0	3	i	-6
COc1ccc(OC)c(NS(=O)(=O)c2ccc(Cl)nc2)c1	5	3	-10	/	-1	5	i	-11
CN(CC(=O)Nc1ccccc1Cl)CC(=O)Nc1sc2c(c1C(N)=O)CCC2	/	/	-10	/	-3	-4	i	/
O=C(CSc1ncc(S(=O)(=O)c2ccccc2)c(=O)[nH]1)Nc1ccccc1Cl	9	-5	-64	/	2	8	i	-1
COc1ccc(NC(=O)CN(C)CCOc2ccc(Cl)cc2)cc1OC	-9	5	-2	-4	1	2	i	10
CC(OC(=O)c1cnc(Cl)c(Cl)c1)C(=O)NCc1ccccc1 (configuration not stated)	-4	/	-11	-22	-3	2	/	/
CCCCC(=O)NC(c1ccccc1Cl)c1ccc2cccnc2c1O (configuration not stated)	99*	24	-130	-15	0	-10	i	5
O=C(Nc1ccc(S(=O)(=O)Nc2cnc3ccccc3n2)cc1)c1ccc(Cl)c([N+](=O)[O-])c1	-2	0	18	-3	1	-6	i	8
CC(Oc1cccc(Cl)c1)C(=O)Nc1ccccc1N1CCCC1 (configuration not stated)	26	/	-6	/	-3	-2	i	/
COc1ccc(C2CC(C(F)(F)F)n3nc(C(=O)NCc4c(C)nn(C)c4C)c(Cl)c3N2)cc1 (configuration not stated)	-3	-5	/	1	-1	-14	i	7
Nc1nc(N)nc(-c2ccc(Cl)c(Cl)c2)n1	0	/	28	-10	-13	-4	/	/
COC(=O)c1sc(-c2ccc(Cl)cc2)cc1NC(=O)/C=C/C(=O)O	45	-13	-19	-22	-2	-9	i	0
